eIF4H inh = human eIF4H binding inhibitors, primary screen, translation initiation inhibitor project, biochemical, uHTS, fluorescence polarization; Eukaryotic translation initiation factor 4H (Homo sapiens), Q15056; eIF4H fluorescence polarization binding assay; inhibition, % at 35 µM; 290,000 compounds, 0.94% hits; AID 2012, 2009;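 active means 50% or more with normal probe brightness, or confirmed in later tests; inconclusive means above 50% with abnormal brightness, or retests that disagree; inactive means below 50% or failed in later tests; about a fifth of its hits are not listed in these tables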;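 further: calls also rest on retests at 20 µM and on dose response follow-up; 0% = protein and probe with vehicle and 100% = probe without protein; strong numbers were not always called active; many hits fall short of the cut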
HIV Env fusion = inhibitors of HIV-1 Env-driven cell-cell fusion, primary screen, HeLa-JRFL effector, CEM21 target cells, luciferase; AID 651610, 2012; 360,000 compounds, 1.1% hits; inhibition, % at 12.3 µM;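 active means mean replicate inhibition score of at least 50 and every replicate individually at or above 50; inconclusive means only one of the two criteria met; inactive means mean below 50 and not all replicates reaching 50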;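 further: 0% = plate neutral controls and 100% = maraviroc near 300 nM; one replicate is shown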
MT1-MMP act inh = blockers of MT1-MMP proenzyme processing, primary screen, HT1080 RFP-PRO-GFP cells, GFP/RFP fluorescence; GFP/RFP ratio fluorescence, overnight; percent of plate control window, DMSO zero; 360,000 compounds, 0.061% hits; Matrix metalloproteinase-14 (Homo sapiens), P50281; GFP/RFP ratio change, % at 20 µM;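 active means GFP/RFP ratio change of at least 30% with cell ATP level not reduced by more than half and red fluorescence within 50% of control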; further: strong numbers were not always called active
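Assay system: RFP-PRO-GFP reporter HT1080 cells; read-out basis: GFP/RFP fluorescence ratio; benchmarks: DMSO wells and RFP-L50D-GFP cells; doses: 20 µM single dose, 1% DMSO; schedule: overnight cell settling, then overnight compound exposure, 37 °C, 5% CO2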
Rce1 inhib = yeast Rce1p protease inhibitors, primary screen, biochemical, fluorescence, cell-free homogeneous; yeast membranes, quenched prenylated peptide cleavage fluorescence; calls only; 290,000 compounds, 0.27% hits; AID 2563, 2010;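 active means fall in fluorescence gain of 50% or more versus controls, with final raw signal at or below 3038400; inconclusive means same 50% fall but final raw signal above 3038400; inactive means fall in fluorescence gain under 50%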;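 further: plate controls were neutral control wells for no effect and wells lacking membranes for full effect; tested at 10 µM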
Target sequence (Q03530 whole entry, looked up): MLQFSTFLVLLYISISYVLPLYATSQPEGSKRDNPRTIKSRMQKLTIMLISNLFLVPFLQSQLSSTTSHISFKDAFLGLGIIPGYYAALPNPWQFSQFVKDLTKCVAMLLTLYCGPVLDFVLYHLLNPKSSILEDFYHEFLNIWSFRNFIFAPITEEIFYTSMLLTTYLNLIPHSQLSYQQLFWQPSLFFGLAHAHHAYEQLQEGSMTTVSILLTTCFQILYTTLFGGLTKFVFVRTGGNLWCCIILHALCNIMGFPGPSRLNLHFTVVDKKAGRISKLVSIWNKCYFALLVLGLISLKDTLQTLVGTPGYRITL
Yeast UUG start = modulators of yeast start codon fidelity, primary screen, whole organism, S. cerevisiae, single point, plate reader. S. cerevisiae UUG-firefly luciferase reporter, luminescence/redox ratio. activity score, % at 18.7 µM. 350,000 compounds, 0.13% hits;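 active means replicate mean at a twofold rise or more, about +100% in these data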;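 further: firefly luciferase made from a UUG start codon reports start codon fidelity; reporter light over untreated wells divided by growth signal over untreated wells; some hits fall short of that in this replicate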
PABP polyA inh = PABP poly(A) RNA binding inhibitors, primary screen, biochemical, fluorescence polarization, uHTS; inhibition, % at 35 µM; 290,000 compounds, 1% hits; AID 2014, 2009;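 active means 50% or more with normal probe brightness, or confirmed in later tests; inconclusive means above 50% with abnormal brightness, or retests that disagree; inactive means below 50% or failed in later tests; about a fifth of its hits are not listed in these tables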;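 further: calls also rest on retests at 20 µM and on dose response follow-up; controls were probe without protein and protein plus probe with vehicle; some compounds called inactive have numbers as strong as hits; many hits fall short of the cut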
CSC inhib = cancer stem cell viability inhibitors, primary screen, luminescence | cancer stem cell-like cells viability | inhibition, % at 7.5 µM | 300,000 compounds, 1.1% hits | AID 2717, 2010;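 active means mean at 75% or more and at least half the replicates too; inconclusive means mean and replicates disagree; tested in HMLE shEcad cells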;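 further: 0% = median of negative and 100% = median of positive control wells; the first replicate is given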
PABP polyA inh retest = further read-out of PABP polyA inh, marked with its call; inhibition, %; compound at 20 µM; confirmation repeats;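 mean of two retest wells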
MT1-MMP act inh RFP = second read-out of MT1-MMP act inh, no call of its own (marks repeat the call); RFP signal change, %; measured here: RFP expression control read;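 0 = vehicle wells; hits needed this value within 50% of zero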
Starred values were filed as active, the others as inactive; i = inactive; ? = inconclusive; . = not tested or not shown.

SMILES	eIF4H inh	HIV Env fusion	MT1-MMP act inh	MT1-MMP act inh RFP	Rce1 inhib	Yeast UUG start	PABP polyA inh	CSC inhib	others
Cc1cc(NC(=O)CSCC(=O)N2CCN(c3cccc(C(F)(F)F)c3)CC2)no1	.	7	-3	0	i	.	.	16
Cc1ccc(-c2nn(-c3ccccc3)cc2/C=N/n2c(-c3ccncc3)n[nH]c2=S)cc1	9	-34	1	-2	i	-6	-4	25
COc1ccc(Nc2ncc3c(n2)CC(c2ccccc2)CC3=O)cc1 (centres undefined)	8	30	-5	-3	i	0	-4	-12
CC(C)C[C@H](NC(=O)c1cc2cc(Cl)ccc2n1C)C(=O)N1CCC(C(=O)O)CC1	0	12	5	3	i	-2	-10	2
CC1CCN(S(=O)(=O)c2ccc(NC(=O)CN3CCN(C)CC3)cc2)CC1	-12	-17	1	1	i	4	-6	26
CCN(CC)c1ccc(NC(=O)COc2ccccc2C)cc1S(=O)(=O)Nc1ccccc1OC	5	15	-10	-10	i	.	8	-18
Cc1ccc(C)n1-c1ccc(N2CCOCC2)c([N+](=O)[O-])c1	15	-7	4	-2	i	.	14	2
Cc1ccc(CCNC(=O)CS(=O)Cc2nc(-c3cccc(C)c3)oc2C)cc1 (centres undefined)	-21	-6	-1	-2	i	-3	-1	0
Cc1c(NC(=O)COC(=O)c2cc(-c3cccc4ccccc34)nc3ccccc23)c(=O)n(-c2ccccc2)n1C	?	-7	-16	5	i	.	-1	-8
O=[N+]([O-])c1ccc(N2CCNCC2)cc1NCc1cccnc1	13	9	-9	-4	i	-7	2	8
CCn1c(CNC(=O)c2cccc(C)c2)nnc1SCC(=O)NC1=NCCS1	-6	-3	-2	-2	i	-19	-3	-10
Cc1ccc2[nH]c(=O)c(CN(Cc3nnnn3C3CCCC3)C3CCCCC3)cc2c1	5	-64	20	2	i	-23	9	1
NC(=O)CSc1nc2sc3c(c2c2ncnn12)CCCC3	0	-142	1	8	i	-10	1	2
Cc1ccc(N2C(=O)C3CC(c4ccccc4)=C4C5C=CC(C6C(=O)N(c7ccc(C)cc7C)C(=O)C56)C4C3C2=O)c(C)c1 (centres undefined)	-4	.	-5	-4	i	-12	-4	.
COc1ccc(Cl)cc1NC(=O)CSc1nnc(COc2ccccc2)n1N	-11	.	10	-2	i	-17	15	-5
Cc1nn(C(=O)CCC(=O)NCc2ccc(OC(C)C)cc2)c2ccccc12	4	-2	-7	1	i	-11	-1	.
CC(C)CCn1nnnc1C(c1ccc(N(C)C)cc1)N1CCN(C(=O)c2ccco2)CC1 (centres undefined)	-13	-25	-11	-5	i	-4	-1	10
CC1CCN(CC(O)COc2ccc(-c3ccccc3)cc2)CC1 (centres undefined)	-14	-3	3	0	i	-29	7	.
COc1cc(-c2nn3c(C4CCCCC4)nnc3s2)cc(OC)c1OC	14	.	-4	1	i	-19	12	-5
CCCc1nc(S(=O)(=O)Cc2ccc(Cl)cc2Cl)n[nH]1	1	3	1	-7	i	-3	3	-4
O=C(CCC1CCCN(C(=O)c2ccc3c(c2)OCO3)C1)N1CCN(c2ccccn2)CC1 (centres undefined)	8	-1	0	-5	i	.	13	-2
CN(CC(=O)Nc1ccc(F)cc1)CC(=O)N1CCCC1	.	.	3	1	.	-16	.	11
c1ccc(-c2csc(N3CCN(c4ccccn4)CC3)n2)cc1	-8	-38	9	-3	i	-29	3	21
CC(C)(C)C1CCC(OC(=O)CN2CCOCC2)CC1 (centres undefined)	4	.	-8	-1	i	-3	-3	-5
COc1ccc(CNC(=O)c2cc(S(=O)(=O)N3CCOCC3)cn2C)cc1	-1	-65	5	3	i	-2	6	5
COC(=O)c1nc2nc(-c3cccs3)cc(C(F)(F)F)n2n1	-3	9	4	7	i	-21	-7	24
CCN(CC)C(=O)C(=O)Nc1ccc(Oc2ccccc2)cc1	2	17	1	4	i	-15	-3	-3
Cc1cc(-c2onc3ccc(Cl)cc23)ccc1O	29	-3	-56	3	i	-12	7	-7
O=C(COC(=O)c1ccccc1O)Nc1ccc(OC(F)F)cc1	-3	.	2	-2	i	-15	-2	-12
C=CCOCCN(C)C1=NS(=O)(=O)c2ccccc21	0	2	-1	1	i	.	-6	-5
O=C(NC(c1ccccc1)c1ccccc1)C1(c2cccs2)CCOCC1	?	.	-9	-2	i	.	1.4*	4	PABP polyA inh retest=72*
O=C(COC(=O)CCC(=O)c1ccc(F)cc1)Nc1ccc(F)cc1F	3	-5	-2	3	i	.	6	3
Clc1nc(-c2ccccc2)cc(-c2ccc(Br)cc2)n1	.	.	-6	-6	i	-12	.	-7
Cc1ccc(C(=O)C(=O)c2ccc(C)c(N)c2)cc1N	-5	-9	-1	-3	i	-1	1	-10
COc1ccc(C(CNCC(=O)Nc2ccccc2F)N(C)C)cc1 (centres undefined)	7	14	-1	3	i	-3	-8	-21
COc1ccccc1CC(=O)Nc1ccc(-c2noc(COc3ccc(Br)cc3)n2)cc1	-8	-349	5	2	i	-6	-4	-1
COc1cc(-c2nnco2)cc(OC)c1OC	-4	4	.	.	i	.	6	-3
O=S(=O)(Cc1ccccc1Cl)CC(O)COc1ccccc1Cl (centres undefined)	-16	-107	2	-2	i	1	-7	7
COC(=O)Cc1c(C)nc2nc(-c3ccccc3)[nH]n2c1=O	-8	.	3	2	i	-12	-9	13
CSc1ccc(Cn2c(C)c(C(=O)NCc3ccc(C(C)C)cc3)sc2=O)cc1	.	26	-2	-22	.	-7	.	.
CCOC(=O)CCNC(=O)c1ccccc1Br	-6	-71	-4	1	i	-3	-1	0
Cc1ccc(NC(=O)CN(C)C(=O)CN2C(=O)NC(C)(c3ccccc3)C2=O)cc1 (centres undefined)	1	-36	7	-5	i	9	1	1
CCc1ccccc1N=C1S/C(=C/c2ccccc2OCC(=O)N2CCOCC2)C(=O)N1C	0	6	-14	-15	i	-1	-7	25
COc1cc(/C=N/N=C2/NC(=O)C(CC(=O)O)S2)ccc1OCc1cccc(Cl)c1 (centres undefined)	14	-33	-6	-4	i	.	3	-5
CCOC(=O)N1CCN(C(=O)CSc2nnc(-c3cccc(Cl)c3)o2)CC1	10	19	0	-2	i	-12	3	1
COc1ccccc1NC(=O)NC1CC(=O)N(c2ccc3c(c2)OCCO3)C1 (centres undefined)	.	-10	-1	-1	i	-10	.	-7
O=c1c(Cc2ccc(Cl)cc2)c(O)ccn1Cc1cccc(Cl)c1	-6	.	-3	-5	i	-12	-12	26
CC(C)C[C@H](NC(=O)c1nc[nH]c1C(=O)NCC(=O)OC(C)(C)C)C(=O)OC(C)(C)C	0	-4	-2	-9	i	-6	7	-4
Cc1ccc(S(=O)(=O)N(C)CCCC(=O)NC(C)(C)CO)cc1	-18	-11	6	4	i	-11	-6	-13
Brc1c(C[n+]2ccccc2)nc2ccccn12	4	13	-1	-3	i	3	-4	-4

Continued.
SMILES	eIF4H inh	HIV Env fusion	MT1-MMP act inh	MT1-MMP act inh RFP	Rce1 inhib	Yeast UUG start	PABP polyA inh	CSC inhib	others
CCc1c(O)nc(SCC(=O)Nc2cc(C)on2)n(-c2ccccc2)c1=O	-3	.	-2	1	i	-1	-10	-6
C=CCOC(=O)C1=C[C@@H](c2ccccc2)[C@H](CCCO)[C@@H](OCC)O1	-9	32	-2	-5	i	-10	6	-2
O=C(NCCc1ccc(C(F)(F)F)cc1)C1CC(=O)N(c2ccc3c(c2)OCCO3)C1 (centres undefined)	.	2	-2	-2	.	-6	.	.
O=C(NC(=S)Nc1ccc(NC(=O)c2cccs2)cc1)c1ccco1	1	-1	5	1	i	-19	-12	-1
O=C(Cn1c(=O)[nH]n(-c2ccccc2)c1=O)N1CCCc2ccccc21	-1	-28	0	1	i	-1	13	-8
COc1ccc(C(=O)NC2CC(C)(C)NC(C)(C)C2)cc1OC	1	-18	0	1	i	2	17	15
CCOC(=O)c1c(NC(=O)CSc2nc3ccccc3s2)sc(C)c1C	-5	12	.	.	i	-4	-15	17
Cc1cc(Cl)c(S(=O)(=O)NC2CCCC2)cc1OCC(=O)NC1CCCCC1	-4	?	-12	-30	i	7	-9	-10
Cc1ccc(-n2c(-c3ccc(Cl)cc3)c[n+]3c2CCC3)cc1	-1	-13	5	-32	i	.	-2	16
CCOC(=O)NN=C1CCC(c2ccccc2)CC1 (centres undefined)	4	10	-2	4	i	-12	-6	-14
Cc1ccc(NC(=O)CSc2nc(C)c(C)c(C)n2)cc1S(=O)(=O)N1CCOCC1	.	.	1	-2	.	-6	.	-21
CS(=O)(=O)N1CCC(C(=O)Nc2c(F)cccc2F)CC1	-4	-31	-4	0	i	-15	-2	1
COCCn1c(N)c(N(Cc2ccccc2)C(=O)c2oc3ccccc3c2C)c(=O)[nH]c1=O	6	-19	-4	2	i	-7	3	-3
O=S1(=O)CCC(N=Cc2ccc(-c3ccc(Cl)cc3)o2)C1 (centres undefined)	-7	-100	0	-2	i	.	-2	0
Cc1nc(N2CCCCC2)nc(N2CCCCC2)c1C=O	9	-12	-8	-1	i	-15	-4	-5
O=[N+]([O-])c1cc(Cl)cc(/C=N/Nc2nc3ccccc3s2)c1O	18	-3	11	-9	i	-8	6	47
COc1ccc(Nc2nc(N)nc(CSC(=S)N3CCN(C)CC3)n2)cc1	11	8	5	7	i	-12	-3	-1
COc1ccc(OC)c(NC(=S)NN2CCOCC2)c1	-2	38	-4	-1	i	-12	-12	-10
O=C(COC(=O)c1cc(S(=O)(=O)N2CCOCC2)ccc1F)c1ccc[nH]1	3	21	0	7	i	-13	-4	.
O=C(CCCN1CCC(O)(c2cccc(C(F)(F)F)c2)CC1)c1ccc(F)cc1	.	2	0	-1	.	-15	.	0
Cc1ccc(-n2c(SCC3CCCCO3)nnc2-c2ccco2)cc1 (centres undefined)	2	.	-1	-1	i	.	6	-6
CN(C(=O)c1cc2ccccc2oc1=O)C1(C)CCS(=O)(=O)C1 (centres undefined)	0	7	2	4	i	.	-4	-7
CCCNC(=O)c1ccc(COc2ccc(C(C)(C)C)cc2)o1	-8	-2	-3	-11	i	0	-13	35
CCC(=O)C1CCCN(C(=O)c2ccc3nc(-c4cccc(OC)c4)oc3c2)C1 (centres undefined)	-14	-60	-2	-1	i	-12	-4	-4
C=CCn1c(SCC(=O)N(C)C)nc2cc(C(=O)O)ccc2c1=O	-4	-1	0	7	i	.	1	-19

Of the compounds above, these contain a COOH group:
SMILES	eIF4H inh	HIV Env fusion	MT1-MMP act inh	MT1-MMP act inh RFP	Rce1 inhib	Yeast UUG start	PABP polyA inh	CSC inhib	others
CC(C)C[C@H](NC(=O)c1cc2cc(Cl)ccc2n1C)C(=O)N1CCC(C(=O)O)CC1	0	12	5	3	i	-2	-10	2
COc1cc(/C=N/N=C2/NC(=O)C(CC(=O)O)S2)ccc1OCc1cccc(Cl)c1 (centres undefined)	14	-33	-6	-4	i	.	3	-5
C=CCn1c(SCC(=O)N(C)C)nc2cc(C(=O)O)ccc2c1=O	-4	-1	0	7	i	.	1	-19

Assay outcomes (PubChem BioAssay)

Only part of the results is shown, so the mix of outcomes need not match the whole.
